VACV mCherry inh = qHTS for Stage-Specific Inhibitors of Vaccinia Orthopoxvirus: mCherry Reporter Primary qHTS. Vaccinia virus mCherry reporter infection, fluorescence; about a quarter of the inactives have no number. Potency, µM (series often up to 36.5 µM), inactives show top-dose activity change, negative = inhibition, actives largely listed as inhibitors. 310,000 compounds, 0.63% hits. AID 720579, 2013; active = well fitted inhibition curve with a large enough effect; inconclusive = small, poorly fitted or top-dose-only effect; inactive = no such curve, though single readings can be large or run the other way; tested in A549 cells; note: nearly all actives have a fitted effect of over 35% in size; inactives centre near -10
Vaccinia Venus = qHTS for Stage-Specific Inhibitors of Vaccinia Orthopoxvirus: Venus Reporter Primary qHTS | Vaccinia virus Venus reporter expression, fluorescence | Potency, µM (series often up to 36.5 µM), for inactives: at the top dose activity change, negative = inhibition, hits mostly inhibitors | 330,000 compounds, 0.46% hits; active means well fitted inhibition curve with a large enough effect; inconclusive means small, poorly fitted or top-dose-only effect; inactive means no such curve, though single readings can be large or run the other way; tested in A549 cells; note: nearly all actives have a fitted effect of over 30% in size; inactives centre near -10
* = called active by the depositor; i = inactive; ? = inconclusive; . = not tested or not shown; & = joins results of further samples; [ ] = another dose, or the depositor's remark. % is set by controls: 0 for no effect and ±100 for the full control effect; potency is the fitted concentration of half-maximal effect.

1. COC(=O)c1c(/N=C/N(C)C)sc2c1CCN(c1ncc(C(F)(F)F)cc1Cl)C2
2. Cc1nc2sc(-c3ccccc3)nn2c(=O)c1Br
3. Cc1cccnc1C1=NOC(Cc2ccccc2)C(=O)N1Cc1ccccc1F (centres undefined)
4. CC(C)CN=c1cc(-c2ccccc2)oc2ccc(Cl)cc12
5. CC1CCN(S(=O)(=O)c2ccc(Oc3ccc([N+](=O)[O-])cc3)cc2)CC1
6. CC(=O)Nc1cccc(Oc2ccc([N+](=O)[O-])cc2Cl)c1

assay / entry,1,2,3,4,5,6
VACV mCherry inh,.,-14.4%,i,.,?,-3.0%
Vaccinia Venus,-23.0%,0.2%,-0.3%,-24.5%,?,-6.3%

7. COc1cccc(Nc2nc(N)nc(CCl)n2)c1
8. O=C(Cn1cnc2ccccc2c1=O)N1CCOCC1
9. S=c1[nH]nc(-c2ccncc2)n1Cc1ccccc1
10. CC(C)NC(=O)C1CCN(S(=O)(=O)c2ccc(N3CCCC3=O)cc2)CC1
11. Cc1ccccc1Nc1c(-c2ccco2)nc2c(C)cccn12
12. O=C(/C=C/c1ccco1)Nc1ccccc1N1CCOCC1

assay / entry,7,8,9,10,11,12
VACV mCherry inh,10µM*,-11.3%,-4.3%,-7.9%[7.34 µM],-4.2%,-20.8%
Vaccinia Venus,?,-6.2%,-6.6%,-3.1%[7.34 µM],-12.6%,0.7%

13. O=C(NCCOc1ccccc1)C1CCC(=O)N(C2CCCCCC2)C1 (centres undefined)
14. CC(CN1CCCCC1)C(=O)NNC(=O)C12CC3CC(CC(C3)C1)C2 (centres undefined)
15. S=C(Nc1ccc2nsnc2c1)N1CCCCCC1
16. Fc1ccc(Cn2nnnc2C(c2cccs2)N2CCCCCC2)cc1 (centres undefined)
17. O=C(O)C1C2C=CC(C2)C1C(=O)NCc1ccc2c(c1)OCO2 (centres undefined)
18. O=C(O)C1CC=CCC1C(=O)Nc1ccc2c(c1)OCCO2 (centres undefined)

assay / entry,13,14,15,16,17,18
VACV mCherry inh,-13.3%,-11.0%,-15.6%,-15.6%,-9.5%,-16.9%
Vaccinia Venus,-11.6%,-12.2%,-0.5%,-20.8%,-11.4%,-10.5%

19. O=C(Cn1cc(SCc2c(F)cccc2Cl)c2ccccc21)N1CCCCCC1
20. COc1nc(NCCC2=CCCCC2)nc(OC)n1
21. NC1=NC(=Nc2ccccc2)c2ccccc21
22. COc1ccc(CCNCC(=O)Nc2ccc(C(=O)N3CCCCC3)cc2)cc1
23. Cc1cc(N2C(=O)C3C4C=CC(C4)C3C2=O)ccc1NC(=O)c1cccs1 (centres undefined)
24. CCOC(=O)CNC(=O)CSc1nc2c(C)cccc2cc1CC

assay / entry,19,20,21,22,23,24
VACV mCherry inh,i,-29.2%,?,8.8%,-14.1%,-25.6%
Vaccinia Venus,-16.7%,-15.7%,?,-0.2%,-4.7%,-16.2%

A draw from above in order of number of heavy atoms, falling:
19. O=C(Cn1cc(SCc2c(F)cccc2Cl)c2ccccc21)N1CCCCCC1
24. CCOC(=O)CNC(=O)CSc1nc2c(C)cccc2cc1CC
20. COc1nc(NCCC2=CCCCC2)nc(OC)n1

assay / entry,19,24,20
VACV mCherry inh,i,-25.6%,-29.2%
Vaccinia Venus,-16.7%,-16.2%,-15.7%

(more compounds)
25. CC1CCN(C(=O)CN2C(=O)NC3(CCC(C)CC3)C2=O)CC1 (centres undefined)
26. O=C(NCc1ccc2c(c1)OCO2)C1CCCN1S(=O)(=O)c1ccc(Cl)cc1 (centres undefined)
27. COC(=O)c1ccc(OCCCCN2CC(C)OC(C)C2)cc1 (centres undefined)
28. Cc1ccc(NC(=O)C2CCCN(c3ncnc4c3nc3n4CCCCC3)C2)c(Br)c1 (centres undefined)
29. COc1ccc(-c2ccnc3nc(/N=C/N(C)C)nn23)cc1
30. CCN1C(=O)[C@H]2[C@@H](c3ccc(-c4ccc5c(c4)OCO5)cc3)N3CCC[C@@]3(C(=O)OC)[C@H]2C1=O

assay / entry,25,26,27,28,29,30
VACV mCherry inh,-0.6%,-2.3%,-13.3%,-8.2%,i,-23.3%
Vaccinia Venus,-13.7%,-0.7%,-21.5%,0.5%,-6.8%,-23.7%

31. CC(C)Nc1nc(Oc2cccc(Cl)c2Cl)cc(C(F)(F)F)n1
32. Cc1ccc(-n2nc3c(c2NC(=O)c2ccc(S(=O)(=O)N4CCOCC4)cc2)CSC3)c(C)c1
33. COc1ccc(CCNC(=O)CCCCn2c(=O)c3ccccc3n(Cc3cc(C)ccc3C)c2=O)cc1OC
34. Nc1nc(SCC(=O)N2CCCC2)[nH]c(=O)c1-c1ccccc1
35. CCOC(=O)C(CCCCCCP(=O)(c1ccccc1)c1ccccc1)NC(C)=O (centres undefined)
36. Cc1ccc(OCC(=O)NCc2ccccc2)c([N+](=O)[O-])n1

assay / entry,31,32,33,34,35,36
VACV mCherry inh,-8.9%,-2.9%,6.8%,-13.3%,i,-16.0%
Vaccinia Venus,-6.5%,-1.4%,-0.2%,-7.8%,-13.9%,-3.9%

37. CCc1cccc(C)c1NC(=O)CN1C(=O)NC(CCc2ccccc2)C1=O (centres undefined)
38. CC(NC(=O)CN1C(=O)COc2ccccc21)c1ccccc1 (centres undefined)
39. CCOCCCNC(=O)c1ccc(-n2c(-c3ccccc3)cc3c2CCCC3)cc1
40. COc1cccc(C(=O)CSc2nnc(COc3cccc4cccnc34)o2)c1
41. O=C(Cc1ccc(Cl)cc1)N1CCN(c2ccc(F)cc2)CC1
42. O=C(Cn1nc(C(=O)O)c2ccccc2c1=O)Nc1ccc(F)cc1F

assay / entry,37,38,39,40,41,42
VACV mCherry inh,-2.4%,-14.5%,-10.9%,i,?,-4.4%
Vaccinia Venus,-5.4%,-4.8%,-20.2%,2.9%,-27.6%,3.7%

43. CCOC(=O)N1CCN(c2c(N3CCc4ccccc4C3)c(=O)c2=O)CC1
44. COCCCn1c(N)c(C(=O)Nc2sc3c(c2C(=O)OC)CCCC3)c2nc3ccccc3nc21
45. O=c1[nH]c2ccccc2n1C1CCN(C(c2cccc3ccccc23)c2nnnn2Cc2ccccc2)CC1 (centres undefined)
46. CCOC(=O)C(=C1Nc2ccccc2N1)n1c(-c2cnccn2)nc2ccccc21
47. CC1(C)CC(=O)C=C(N2CCCC2)C1
48. COC(=O)c1cc(C(=O)NCCC(C)C)cc([N+](=O)[O-])c1

assay / entry,43,44,45,46,47,48
VACV mCherry inh,-25.3%,i,-5.7%,-3.4%,-15.2%,-2.2%
Vaccinia Venus,-17.0%,-6.8%,-25.7%,-0.2%,-15.3%,0.3%

49. CCn1ncc(/C=C/C(=O)c2ccccc2)c1C
50. CCOC(=O)C1Oc2ccccc2C(c2ccc(OC)cc2)=C1C(=O)OC (centres undefined)
51. CCCOc1ccc(C(C)(O)CN2CCOCC2)cc1 (centres undefined)
52. CCOC(=O)c1c(C)[nH]c(CCC(=O)NCc2ccccc2C)c1C
53. COc1ccc2nc3c(nc2c1)CCCC3
54. Cc1nc2scc(C)n2c(=O)c1S(=O)(=O)NCCc1ccc(Cl)cc1

assay / entry,49,50,51,52,53,54
VACV mCherry inh,-17.8%,-2.5%,.,-9.1%,-14.0%,-12.8%
Vaccinia Venus,-10.5%,-8.1%,-12.0%,-2.9%,-10.8%,-15.1%

55. O=C(NCCc1ccc(Cl)cc1)C1CCC(=O)N(C2CCCCCC2)C1 (centres undefined)
56. COc1ccc(S(=O)(=O)Nc2ccc3c(c2)C(=O)N([C@H](C)CO)C[C@H](C)[C@@H](CN(C)C(=O)Nc2ccc(C(F)(F)F)cc2)OCCCC[C@H](C)O3)cc1
57. CN(C)c1ccc(/C=C/c2ccnc3ccccc23)cc1O
58. Cc1c(C#N)c(O)n(C)c(=O)c1N=Nc1ccc(S(N)(=O)=O)cc1
59. COc1c(C)cc(Br)cc1C(=O)O
60. CCOC(=O)c1cc(-c2ccc(OC)c(S(=O)(=O)NCc3ccccc3Cl)c2)on1

assay / entry,55,56,57,58,59,60
VACV mCherry inh,i,-11.0%,-16.5%,-6.6%,-9.2%,-10.2%
Vaccinia Venus,-11.6%,?,13.6%,-3.0%,1.3%,-12.3%

61. CCOC(=O)C1CCN(C(=O)CN(Cc2ccccc2)S(C)(=O)=O)CC1
62. O=C(CCSCCc1ccccn1)Nc1c(F)c(F)c(F)c(F)c1F
63. CCOC(=O)Cn1cnc2c(C#N)c3n(c2c1=O)CCCCC3
64. COc1ccc(CCNC(=O)CCCc2nnc3n(C)c(=O)c4sccc4n23)cc1OC
65. O=C1[C@H](Cc2ccccc2)NCC=CC[C@H](c2ccc(Cl)cc2)N1Cc1ccc(Cl)cc1
66. O=C(NCc1ccccc1)c1cccc(NC(=O)C2CCCC2)c1

assay / entry,61,62,63,64,65,66
VACV mCherry inh,-25.7%,-17.9%,.,-6.3%,-25.5%,-16.4%
Vaccinia Venus,-18.1%,-8.3%,-4.4%,1.8%,?,-8.9%

67. C=CCNC(=O)c1cc(-c2ccccc2)sc1N
68. CCOC(=O)C1Nc2ccc(C(F)(F)F)cc2C2c3ccccc3CC12 (centres undefined)
69. c1ccc(Cn2c(SCc3cn4cccnc4n3)nnc2-c2ccco2)cc1
70. COc1ccccc1/C=N/Nc1nncc2ccccc12
71. NC(=O)N/N=C/c1c(O)ccc2oc3c(c12)CCCC3
72. CCOC(=O)C1CCN(S(=O)(=O)C(F)(F)c2nc3ccccc3s2)CC1

assay / entry,67,68,69,70,71,72
VACV mCherry inh,?,?,-11.3%,-18.1%,?,i
Vaccinia Venus,-13.7%,?,-7.4%,-12.6%,-18.1%,-3.9%

73. Cc1ccccc1CNC(=O)c1ccc2nc(C(C)C)oc2c1
74. Cc1ccc(S(C)(=O)=NC(=O)NC(=O)c2c(F)cccc2Cl)cc1 (centres undefined)
75. Cc1ccc(Nc2nc(/N=C/NO)n[nH]2)cc1C
76. COc1ccc(C(=O)NCCc2nnc3ccc(SCC(=O)NCc4ccc(F)cc4)nn23)cc1
77. CCC1(c2ccccc2)NC(=O)N(CC(=O)NCc2ccc(OC)cc2)C1=O (centres undefined)
78. CCN1C(=S)N[C@@H](CCc2ccccc2)C(C(=O)OC)=C1C

assay / entry,73,74,75,76,77,78
VACV mCherry inh,-0.1%[7.34 µM],-12.8%,-25.4%,-14.6%,-29.2%,0.0%
Vaccinia Venus,-8.5%[7.34 µM],-9.4%,-0.2%,-11.3%,-15.7%,-2.8%

79. Cc1ccc(C(=O)n2nc(C#N)c(C#N)c2N)cc1
80. COc1ccc2c3c1OC1CC(O)C=C[C@@]31CCN(C)C2 (some centres undefined)
81. COc1cccc(NC(=O)CN(C)C(=O)CNC(=O)c2ccc(C)s2)c1
82. COC(=O)c1cc(C)nc2c1c(=O)nc(SCc1ccccc1Cl)n2C1CC1
83. NS(=O)(=O)c1ccc(CCNC(=O)CSc2nc3ccsc3c(=O)n2CC(=O)O)cc1
84. COC(=O)C(CC(=O)c1cccc(OC)c1)c1ccc(F)cc1 (centres undefined)

assay / entry,79,80,81,82,83,84
VACV mCherry inh,-1.3%,-14.6%,-14.5%,-14.5%,-13.7%,-10.5%
Vaccinia Venus,-21.3%,-9.8%,-4.9%,-12.4%,-7.0%,-2.5%

Brought forward from above: four compounds, followed by the next part.
81. COc1cccc(NC(=O)CN(C)C(=O)CNC(=O)c2ccc(C)s2)c1
82. COC(=O)c1cc(C)nc2c1c(=O)nc(SCc1ccccc1Cl)n2C1CC1
83. NS(=O)(=O)c1ccc(CCNC(=O)CSc2nc3ccsc3c(=O)n2CC(=O)O)cc1
84. COC(=O)C(CC(=O)c1cccc(OC)c1)c1ccc(F)cc1 (centres undefined)
85. O=C(NCCCN=C1NS(=O)(=O)c2ccccc21)c1ccco1
86. CCOC(=O)C1(CCOc2ccccc2)CCN(Cc2ccc(CO)o2)CC1
87. Fc1ccccc1Cc1noc(CN2CCN(c3ccc(Cl)cn3)CC2)n1
88. CC(C)(C)c1ccc(C(O)c2ncc(-c3ccccc3F)[nH]2)cc1 (centres undefined)
89. CCCCOc1ccc(C(=O)N(Cc2ccccc2)C2CCS(=O)(=O)C2)cc1 (centres undefined)
90. CCN(CC)CCCNC(=O)C1c2ccccc2Oc2ccccc21
91. Cc1oc(-c2cccc(Cl)c2)nc1CN1CCC(C(=O)N2CCN(c3ccccc3F)CC2)CC1
92. Cc1cccc(C(=O)Nc2ccccc2C(=O)OCc2cc(=O)n3nc(C4CC4)sc3n2)c1

assay / entry,81,82,83,84,85,86,87,88,89,90,91,92
VACV mCherry inh,-14.5%,-14.5%,-13.7%,-10.5%,i,i,-12.1%,i,-22.8%&2.6%,-14.0%,?,-10.4%
Vaccinia Venus,-4.9%,-12.4%,-7.0%,-2.5%,-2.1%,-10.0%,-14.7%,-3.3%,-17.4%&-11.2%,-12.1%,15.8µM*,-7.0%

Some values from the results shown.
#85 – Vaccinia Venus: -2.1%
#86 – Vaccinia Venus: -10.0%
#91 – Vaccinia Venus: 15.8µM*
#89 – Vaccinia Venus: -17.4%&-11.2%
